Rango release inh = inhibitors of RanGTP-induced Rango-importin beta complex dissociation; O95149+P62826; Biochemical FRET Rango-importin beta, RanGTP-induced dissociation; Potency, µM (titrated, usually from 46.1 µM), without a hit: at the top dose activity change, negative = inhibition; actives 0.071% (n = 340,000); active means falling FRET ratio curve, often poorly fitted, with flat reads before Ran was added; inconclusive means other falling curves, or compound fluorescence or quenching; inactive means flat or rising ratio curve;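 further: potency means the concentration at half of the fitted maximal effect; % of control where 0% means no effect; nearly all actives have a fitted effect of over 45% in size; -100% = wells without RanGTP and RCC1; the record marks most hits as doubtful in a second field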
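Rango/importin beta premix (0.1/0.25 uM final), PBS + 1 mM DTT + 0.02% Tween-20 + 0.1% BSA; cpd 5 min RT; FRET pre-read; + RanGTP-RCC1 (0.6 uM Ran, 2 mM GTP, 0.2 uM RCC1); 45 min RT; FRET post-read, ex 430, em 486/530 nm.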
Rango complex inh = Rango-importin beta binding inhibition | actives 0.031% (n = 340,000) | Potency, µM (series often up to 92.2 µM), without a hit: at the top dose inhibition of complex formation | Rango CFP/YFP FRET sensor + importin beta, 45 min; active = rising FRET ratio curve, often small or poorly fitted; inconclusive = mostly compound fluorescence or quenching in the first reads; inactive = flat curves in all reads;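 further: potency means the concentration at half of the fitted maximal effect; 0% = DMSO wells and 100% = buffer wells lacking importin beta; nearly all actives have a fitted effect of over 15% in size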
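Inhibition scored from the CFP 486 nm/YFP 530 nm FRET ratio 45 min after adding 0.125 microM importin beta to 50 nM Rango biosensor preincubated 5 min with compound (room temperature, PBS with DTT, Tween-20, BSA). No-importin wells as positive control.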
miR-21 reporter = raises the signal of a miR-21 reporter; 340,000 tested, under 10 active; HeLa miR-21 FLuc reporter, luciferase, 48 h; Potency, µM (highest dose often 38.3 µM), for inactives: top-dose reporter change, positive = more light; active = well fitted rising curve with a large enough effect; inconclusive = small, poorly fitted or top-dose-only effect; inactive = no such curve, though single readings can be large or run the other way;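 further: % of control where 0% means no effect; miR-21 action dims this reporter so a rising signal means less miR-21 action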
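Luminescence from a firefly luciferase reporter carrying a miR-21 binding site downstream, stably expressed under a CMV promoter in HeLa cells that make miR-21 endogenously, reports miRNA modulation after 48 h compound exposure up to approximately 40uM final.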
GLA inh pH 4.5 = alpha-galactosidase A (human) inhibition, pH 4.5. P06280. purified enzyme, 4-MU-alpha-Gal fluorescence, pH 4.5. activity change, negative = inhibition, % at 105 µM. 230,000 tested, under 10 active. AID 1467; inconclusive = small, poorly fitted or top-dose-only inhibition, or a rising curve; inactive = flat fitted curve, though single readings scatter; no compound was filed as active;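 further: 0% = full activity with enzyme and -100% = basal without enzyme; dose as in the result columns while the protocol names 77 µM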
Target sequence (P06280 whole entry, looked up): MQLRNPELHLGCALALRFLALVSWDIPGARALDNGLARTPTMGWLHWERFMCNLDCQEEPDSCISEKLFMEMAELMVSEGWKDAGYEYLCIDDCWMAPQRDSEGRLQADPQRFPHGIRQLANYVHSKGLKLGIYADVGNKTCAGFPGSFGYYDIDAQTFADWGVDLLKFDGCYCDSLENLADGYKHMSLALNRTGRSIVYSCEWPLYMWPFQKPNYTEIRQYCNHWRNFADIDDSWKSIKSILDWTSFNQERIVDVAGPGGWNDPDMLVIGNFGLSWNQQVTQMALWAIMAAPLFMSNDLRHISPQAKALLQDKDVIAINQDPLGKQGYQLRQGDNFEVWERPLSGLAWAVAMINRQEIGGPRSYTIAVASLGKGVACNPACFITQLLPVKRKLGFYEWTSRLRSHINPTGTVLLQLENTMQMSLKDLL
Starred values were filed as active, the others as inactive; ? = inconclusive; / = not tested or not shown.

SMILES	Rango release inh	Rango complex inh	miR-21 reporter	GLA inh pH 4.5
CCCc1nc2ccccc2c(C(=O)OCC(=O)Nc2cccc(S(=O)(=O)N3CCOCC3)c2)c1CC	-3%	-1.5%	29%	-12
C=CCc1c(O)c(CC)cc2c(C)cc(=O)oc12	?	?	-5%	?
Cc1cccc(CC(=O)NCC(=O)NCc2cc(=O)n(C)c(=O)n2C)c1	6%	0.0%	-2%	/
COc1cccc(NC(=O)[C@@H]2CCCN2C(=O)[C@@H]2Cc3ccccc3CN2C(=O)OC(C)(C)C)c1	0%	0.0%	-17%	/
COc1ccc(-c2csc(Nc3ccc(C)cn3)n2)cc1	0%	1.9%	-2%	10
CC[C@H](C)C(N)c1cn(C(CCCN=C(N)N)C(=O)N2CCNCC2)nn1 (some centres undefined)	-12%	0.2%	/	/
CC(OC(=O)CCN=C1NS(=O)(=O)c2ccccc21)C(=O)NCc1ccccc1 (centres undefined)	-1%	2.9%	/	/
Cc1cccc(C(=O)NC(CC(=O)O)c2ccc(OC3CCCC3)cc2)c1[N+](=O)[O-] (centres undefined)	2%	1.1%	-5%	9
CC(=O)N1CCN2C(=O)C1CCCC(=O)c1cc(C)ccc12 (centres undefined)	-5%	0.1%	1%	1
CC(=O)c1cccc(NC=C2C(=O)OC3(CCCCC3)OC2=O)c1	4%	-2.0%	-2%	-7
CS(=O)(=O)N(CCc1ccccc1)CC(=O)NCc1ccccc1	1%	0.0%	-2%	2
C/C(=N\NC(=O)CC1N=C(Cc2ccccc2)NNC1=O)c1ccc(Br)cc1 (centres undefined)	11%	0.1%	15%	-6
O=C(CCc1ccccc1)N/N=C/c1cc(Br)ccc1O	-16%	-2.4%	-4%	2
N#Cc1ccc(-c2csc(-c3ccno3)n2)cc1	-10%	1.4%	-27%	1
Cc1sc2ncn3cnnc3c2c1C	1%	11%	2%	-7
CC(=O)c1ccc2c(c1)OCCOCCOCCOCCOCCO2	11%	-1.3%	1%	-1
COC(=O)C1=C(N)Oc2cc(C)n(Cc3cccnc3)c(=O)c2C1c1ccc(OC)c(OC)c1 (centres undefined)	-4%	1.0%	-14%	5
OCCN1CCN(c2nc(NCc3ccco3)c3ccccc3n2)CC1	1%	1.4%	-10%	4
COc1ccc(NC(=O)c2ccc(NC(=O)CN3CCN(c4ccccc4)CC3)cc2)cc1	-8%	0.5%	/	/
CCc1sc(C(=O)Nc2ccccc2N2CCOCC2)cc1C	-13%	-0.5%	-13%	-8
CCCN1CCN(CCCNC(=O)C(CC)n2nc(C)c3sc4ccccc4c3c2=O)CC1 (centres undefined)	-9%	-4.2%	-1%	/
Cc1ccc(C(=O)N/C(=C\c2cccs2)C(=O)NC2CCCCC2)cc1	-17%	-0.1%	2%	-4
Clc1ccc(-c2nnc3sc(-c4ccccn4)nn23)cc1	/	/	-7%	2
COc1ccccc1C(=O)Nc1ccnn1C1CCN(Cc2cc(C)c(C)cc2C)CC1	3%	0.8%	23%	/
C[C@H](CO)N1C[C@H](C)[C@@H](CN(C)Cc2ccccc2)Oc2c(NC(=O)C3CC3)cccc2C1=O	-3%	3.9%	/	/
Cc1ccc(-n2nc3c(=O)n(CC(=O)NCc4ccccn4)nc(C)c3c2C)cc1	0%	-1.0%	0%	/
CSCCC(NS(=O)(=O)c1cccc(C(F)(F)F)c1)C(=O)N(C)Cc1ccc2c(c1)OCCO2 (centres undefined)	-15%	3.9%	5%	/
CN(CC(=O)Nc1ccccc1Br)C(=O)c1ccccc1OCc1ccc(Cl)cc1	-9%	-2.2%	/	/
O=C(COC(=O)c1ncc(Cl)c(Cl)c1Cl)Nc1ccccc1OC(F)F	-3%	4.4%	0%	11
CS(=O)(=O)Nc1ccc(S(=O)(=O)N2CCCC2)cc1	22%	-3.7%	0%	6
O=C(c1nn2c(C(F)(F)F)cc(-c3cccs3)nc2c1Br)N1CCCc2ccccc21	?	?	-18%	-5
Cc1ccc(N(C(C)C(=O)N2CCCCC2)S(C)(=O)=O)cc1C (centres undefined)	14%	2.0%	1%	-10
O=C(c1cn(CC(=O)N2CCCCC2)c2ccccc12)C1CC1	-2%	-0.6%	-2%	-9
COc1ccc(/C=N/Nc2nc(-c3cccc(S(=O)(=O)N4CCCC4)c3)cs2)c(OC)c1	-7%	-1.3%	10%	-7
S=C(c1c[nH]c2ccccc12)N1CCCC1	-8%	2.3%	3%	5
CCc1cc(/C(Cc2ccc3ccccc3n2)=N\O)c(O)cc1O	2%	1.3%	-24%	-5
COc1cc(OC)cc(C(=O)NNC(=O)c2ccc(S(=O)(=O)N3CC(C)OC(C)C3)cc2)c1 (centres undefined)	12%	-0.1%	-4%	-4
COc1cc(CC(=O)OCC(=O)c2ccc3c(c2)OCCO3)cc(OC)c1OC	3%	2.4%	21%	1
Cc1c(Cl)cccc1NC(=O)Nn1cnnc1	1%	-1.5%	2%	/
CCn1c(C)c(C(C)=O)c(N2CCN(c3ccccn3)CC2)nc1=S	-3%	4.4%	-8%	3

Taken from above.
`O=C(c1cn(CC(=O)N2CCCCC2)c2ccccc12)C1CC1` in GLA inh pH 4.5 = -9
`CCn1c(C)c(C(C)=O)c(N2CCN(c3ccccn3)CC2)nc1=S` in Rango complex inh = 4.4%
`O=C(COC(=O)c1ncc(Cl)c(Cl)c1Cl)Nc1ccccc1OC(F)F` in Rango release inh = -3%
`Cc1ccc(-n2nc3c(=O)n(CC(=O)NCc4ccccn4)nc(C)c3c2C)cc1` in Rango complex inh = -1.0%

Fetched by structure from above, 3 records:
SMILES	Rango release inh	Rango complex inh	miR-21 reporter	GLA inh pH 4.5
COc1cc(CC(=O)OCC(=O)c2ccc3c(c2)OCCO3)cc(OC)c1OC	3%	2.4%	21%	1
O=C(c1nn2c(C(F)(F)F)cc(-c3cccs3)nc2c1Br)N1CCCc2ccccc21	?	?	-18%	-5
CCc1cc(/C(Cc2ccc3ccccc3n2)=N\O)c(O)cc1O	2%	1.3%	-24%	-5

Returning to the listing; the 2 compounds before the break are reprinted first.
SMILES	Rango release inh	Rango complex inh	miR-21 reporter	GLA inh pH 4.5
Cc1c(Cl)cccc1NC(=O)Nn1cnnc1	1%	-1.5%	2%	/
CCn1c(C)c(C(C)=O)c(N2CCN(c3ccccn3)CC2)nc1=S	-3%	4.4%	-8%	3
CCN(CC)C(=O)CSc1nc2ncc(Cl)cc2[nH]1	-29%	-2.1%	-8%	12
Cc1cccc(C(=O)NCCC(=O)NCc2ccccc2F)c1	-2%	-2.6%	/	/
O=C(c1cc(-c2ccc(Cl)cc2)n[nH]1)N1CCN(C(=O)c2ccco2)CC1	1%	-0.1%	-3%	/
O=C(Nc1ncc(Cc2cccc(Cl)c2)s1)c1ccc([N+](=O)[O-])cc1	1%	-0.1%	-7%	1
COC(=O)C1CSC(C(=O)OC)N1C(=O)CN1CCN(c2ccccc2)CC1 (centres undefined)	5%	0.7%	5%	13
O=C(CCCc1c[nH]c2ccccc12)N1CCCCCC1	-1%	-2.0%	-43%	2
COc1cccc(C(=O)C2=NN(C(C)=O)CC2c2ccco2)c1 (centres undefined)	14%	-2.2%	3%	-1
Cc1ccc(S(=O)(=O)Nc2csc(C)c2C(=O)O)cc1	13%	2.8%	-1%	-7
CCOC(=O)CNC(=O)C12CC3CC(CC(C3)C1)C2	13%	0.6%	-1%	0
CS(=O)(=O)N1CCN(c2ccccc2NC(=O)Cc2ccc(Cl)cc2)CC1	-1%	0.5%	-18%	2
CSc1nc(O)c(Nc2cccc(Cl)c2)c(=O)[nH]1	?	-2.6%	-3%	4
COc1ccc(CSc2nnnn2Cc2ccccc2)cc1OC	19%	-0.7%	-7%	-5
Cn1c(=O)c2c(ncn2CC(=O)Nc2nc(-c3ccccc3Cl)cs2)n(C)c1=O	-10%	0.6%	6%	6
O=C(CSc1ncnc2c1oc1ccccc12)N1CCc2ccccc2C1	/	/	-11%	-12
CC(C)c1ccccc1OCC(O)CN1CCN(S(=O)(=O)c2ccc([N+](=O)[O-])cc2)CC1 (centres undefined)	25%	-0.3%	24%	/
CCNc1c(NC(=O)COc2ccc(Cl)cc2)c(=O)oc2ccccc12	0%	3.5%	-2%	/
CCOc1ccc(-n2c(SCc3ccc([N+](=O)[O-])cc3)nnc2-c2ccc(OC)cc2)cc1	1%	-2.7%	25%	-12
O=C(C1=NN[C@@H]2C(=O)N(Cc3ccccc3)C(=O)[C@H]12)c1ccc([N+](=O)[O-])cc1	-1%	-1.4%	-7%	-16
O=C(CSc1nc(O)cc(=O)n1-c1ccccc1)NCc1ccccc1	-5%	5.3%	0%	-4
Cc1ccc(N2C(=O)c3ccccc3C2=O)nc1	-8%	1.0%	-5%	/
CC1(C)Cc2c(sc(NC(=O)COc3ccc(Cl)cc3Cl)c2C(N)=O)C(C)(C)N1	-5%	-0.6%	0%	/
O=C(Oc1cccnc1)c1cc2ccccc2oc1=O	1%	-0.4%	-6%	4
Nc1cc2nsnc2cc1Br	?	?	29%	1
Cn1c(SCC2CCCCC2)nnc1-c1ccncc1	1%	7.1%	-30%	-9
CCN(CC)S(=O)(=O)c1ccc(N2CCCC2)c(NC(=O)c2ccc(OC)cc2OC)c1	1%	3.2%	0%	-6
CN(C)S(=O)(=O)Nc1cc(Cl)cc(Cl)c1	-17%	-3.2%	-2%	4
O=C(NC1CCN(C(=O)NC2CCCCC2)CC1)c1cccc(F)c1	20%	5.3%	0%	/
CC(C)c1nc2ccccn2c1NC1CCCCC1	-10%	0.1%	0%	-19
O=C(CN1C(=O)c2ccccc2C1=O)NCCc1c[nH]c2ccc(Cl)cc12	15%	4.1%	0%	-17
CC1(C)Cc2nc3sc4c(NCCO)ncnc4c3cc2CS1	11%	0.0%	-14%	-4
COc1ccc(C2=NOC(C(=O)Nc3ccc4c(c3)OCCO4)C2)c(OC)c1 (centres undefined)	1%	-4.3%	-9%	/
O=C1/C(=C\c2ccco2)SC(=S)N1c1ccccc1	13%	-0.2%	-23%	-12
CCN(CC)C(=O)C(=O)Nc1ccc(OC)c(Cl)c1	14%	3.3%	-24%	3
O=C(NCc1ccccc1Cl)C1CCC(CNc2c(N3CCCCC3)c(=O)c2=O)CC1 (centres undefined)	-18%	-7.0%	-8%	5
O=S(=O)(NCC1CCCO1)c1cnc(Cl)c(Br)c1 (centres undefined)	-7%	-3.8%	-1%	-1
CCN1C(=O)/C(=C/c2cccs2)SC1=Nc1ccc(OC)cc1	-6%	3.1%	-6%	0
Cc1cccc(N2C(=O)CS/C2=N\NC(=O)c2ccc(Br)cc2)c1C	9%	1.5%	-36%	-2
Cc1c(Cl)cccc1NC(=O)CCC(=O)NNC(=O)c1ccccc1	5%	7.6%	-10%	3
N#Cc1ccc(OCC(=O)N2CCc3ccccc32)cc1	6%	9.8%	/	/
COc1ccc(C(=O)Nc2cc(C)on2)cc1S(=O)(=O)N1CC(c2ccccc2)CC1=O (centres undefined)	-8%	-0.4%	11%	-27
CS(=O)(=O)c1ccc(Cl)c(NC(=O)COC(=O)CNC(=O)c2cccs2)c1	15%	-1.0%	/	/
CN(C(=O)COC(=O)c1c2c(nc3ccccc13)/C(=C/c1cccc([N+](=O)[O-])c1)CCC2)C1CCS(=O)(=O)C1 (centres undefined)	4%	1.5%	-8%	-9
Cc1csc(NC(=O)C2CCN(S(=O)(=O)c3cccs3)CC2)n1	-7%	1.6%	15%	-12
CC(OC(=O)CC1CCCC1)C(=O)Nc1ccc(Cl)cn1 (centres undefined)	32%	2.7%	/	/
Cc1ccc(N2C(=O)NC(NC(=O)C3CC3)(C(F)(F)F)C2=O)cc1 (centres undefined)	-17%	8.7%	-16%	2
O=[N+]([O-])c1cccc2c(N3CCOCC3)ccnc12	0%	6.0%	-7%	-1
CSc1ncccc1C(=O)N1CCN(C(=O)c2ccccc2)CC1	0%	-6.8%	0%	/
CCOC(=O)N(Cc1ccccc1)Cc1ccc(C(=O)N[C@@H](Cc2ccccc2)C(=O)O)cc1	1%	-0.2%	/	/
CCc1nc(SCC(=O)Nc2cccc(C(F)(F)F)c2)c2c(=O)n(C)c(=O)n(C)c2n1	-9%	-0.7%	9%	8
COc1ccc(C2CC(c3ccc(Cl)c(Cl)c3)Nc3nc(N)nn32)cc1 (centres undefined)	-18%	5.5%	-7%	-1
COc1ccc(N/C=C(\C#N)c2ccc(OCCCF)cc2)cc1	-2%	-4.7%	-14%	5

Screens: PubChem, National Center for Advancing Translational Sciences (NCATS)

This is a subset (hit frequency here may not be typical).
